MT1-MMP act inh – inhibitors of human MT1-MMP activation | GFP/RFP ratio change, % at 20 µM | HT1080 RFP-PRO-GFP cells, GFP/RFP ratio fluorescence, overnight; percent of plate control window, DMSO zero | P50281 | 360,000 tested, 0.061% active;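 active means GFP/RFP ratio change of at least 30% with cell ATP level not reduced by more than half and red fluorescence within 50% of control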; further: strong numbers were not always called active
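Test system: HT1080 cells expressing an RFP-PRO-GFP fluorescent reporter construct / Compound dosing: single-point 20 µM compound, 1% DMSO / Schedule: cells overnight before dosing, compound overnight, 37 °C, 5% CO2 / Evaluation: GFP/RFP fluorescence ratio / Control set: DMSO and RFP-L50D-GFP cell wells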
Rce1 inhib – blocks yeast Ras-converting enzyme; yeast membranes, quenched prenylated peptide cleavage fluorescence; calls only; 290,000 tested, 0.27% active;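 active means fall in fluorescence gain of 50% or more versus controls, with final raw signal at or below 3038400; inconclusive means same 50% fall but final raw signal above 3038400; inactive means fall in fluorescence gain under 50%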;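 further: plate controls were neutral control wells for no effect and wells lacking membranes for full effect; tested at 10 µM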
Target sequence (Q03530 whole entry, looked up): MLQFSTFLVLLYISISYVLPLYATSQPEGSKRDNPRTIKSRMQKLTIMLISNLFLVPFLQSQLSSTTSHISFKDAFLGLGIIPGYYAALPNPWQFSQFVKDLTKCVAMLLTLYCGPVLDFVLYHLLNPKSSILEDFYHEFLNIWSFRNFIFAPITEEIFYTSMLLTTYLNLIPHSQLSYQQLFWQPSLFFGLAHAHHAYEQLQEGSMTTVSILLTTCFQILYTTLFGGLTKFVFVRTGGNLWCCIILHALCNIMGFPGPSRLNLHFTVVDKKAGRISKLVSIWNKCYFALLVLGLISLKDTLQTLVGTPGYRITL
Env fusion inh – inhibitors of HIV Env-mediated cell fusion; HeLa-JRFL Env/CEM21 cell fusion, luciferase; inhibition, % at 12.3 µM; 360,000 tested, 1.1% active; AID 651610;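 active means mean replicate inhibition score of at least 50 and every replicate individually at or above 50; inconclusive means only one of the two criteria met; inactive means mean below 50 and not all replicates reaching 50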;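 further: 0% = plate neutral controls and 100% = maraviroc near 300 nM; one replicate is shown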
UUG fidelity – modulators of start codon recognition fidelity in yeast | S. cerevisiae UUG-firefly luciferase reporter, luminescence/redox ratio | activity score, % at 18.7 µM | 350,000 tested, 0.13% active | AID 602363;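 active means replicate mean at a twofold rise or more, about +100% in these data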;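 further: firefly luciferase made from a UUG start codon reports start codon fidelity; reporter light over untreated wells divided by growth signal over untreated wells; some hits fall short of that in this replicate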
eIF4H FP inh – inhibitors of RNA binding by human eIF4H | Q15056 | inhibition, % at 35 µM | eIF4H fluorescence polarization binding assay | 290,000 tested, 0.94% active;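 active means 50% or more with normal probe brightness, or confirmed in later tests; inconclusive means above 50% with abnormal brightness, or retests that disagree; inactive means below 50% or failed in later tests; about a fifth of its hits are not listed in these tables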;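 further: calls also rest on retests at 20 µM and on dose response follow-up; 0% = protein and probe with vehicle and 100% = probe without protein; strong numbers were not always called active; many hits fall short of the cut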
PABP FP inh – PABP-poly(A) binding inhibition; P11940; PABP-poly(A) RNA binding, fluorescence polarization; inhibition, % at 35 µM; 290,000 tested, 1% active;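 active means 50% or more with normal probe brightness, or confirmed in later tests; inconclusive means above 50% with abnormal brightness, or retests that disagree; inactive means below 50% or failed in later tests; about a fifth of its hits are not listed in these tables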;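 further: calls also rest on retests at 20 µM and on dose response follow-up; controls were probe without protein and protein plus probe with vehicle; some compounds called inactive have numbers as strong as hits; many hits fall short of the cut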
Target sequence (P11940 whole entry, looked up): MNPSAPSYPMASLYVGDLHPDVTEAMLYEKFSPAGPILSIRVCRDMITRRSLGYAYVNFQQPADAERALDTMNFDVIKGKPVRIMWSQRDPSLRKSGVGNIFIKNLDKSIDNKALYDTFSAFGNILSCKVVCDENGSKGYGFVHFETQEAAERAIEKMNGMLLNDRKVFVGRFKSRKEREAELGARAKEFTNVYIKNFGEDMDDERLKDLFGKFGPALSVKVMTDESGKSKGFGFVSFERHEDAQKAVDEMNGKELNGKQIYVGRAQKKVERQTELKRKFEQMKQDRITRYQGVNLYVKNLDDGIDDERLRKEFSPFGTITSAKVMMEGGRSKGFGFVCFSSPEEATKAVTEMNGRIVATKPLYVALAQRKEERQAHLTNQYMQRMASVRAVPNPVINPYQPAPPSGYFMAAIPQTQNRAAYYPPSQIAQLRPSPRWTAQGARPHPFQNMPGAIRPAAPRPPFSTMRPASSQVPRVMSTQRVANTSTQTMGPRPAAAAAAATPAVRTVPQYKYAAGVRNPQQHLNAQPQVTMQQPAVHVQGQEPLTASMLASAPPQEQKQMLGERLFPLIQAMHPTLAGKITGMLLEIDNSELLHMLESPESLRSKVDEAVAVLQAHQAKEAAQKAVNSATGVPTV
CSC inhib – cancer stem cell inhibition | cancer stem cell-like cells viability, luminescence | inhibition, % at 7.5 µM | 300,000 tested, 1.1% active | AID 2717;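 active means mean at 75% or more and at least half the replicates too; inconclusive means mean and replicates disagree; tested in HMLE shEcad cells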;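 further: 0% = median of negative and 100% = median of positive control wells; the first replicate is given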
eIF4H FP inh retest – further read-out of eIF4H FP inh, marked with its call; inhibition, %; compound at 20 µM; confirmation average;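 mean of two retest wells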
PABP FP inh retest – also measured in PABP FP inh; calls as there; inhibition, %; compound at 20 µM; confirmation repeats;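 mean of two retest wells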
MT1-MMP act inh RFP – further read-out of MT1-MMP act inh, marked with its call; RFP signal change, %; measured here: RFP expression control read;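 0 = vehicle wells; hits needed this value within 50% of zero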
* hit, by the source's call; i = inactive; u = inconclusive; x = not tested or not shown.

SMILES	MT1-MMP act inh	MT1-MMP act inh RFP	Rce1 inhib	Env fusion inh	UUG fidelity	eIF4H FP inh	PABP FP inh	CSC inhib	others
O=C(CCn1cccc1)Nc1ccccc1F	5.6	4.7	i	x	-18.7	-1.6	-3.8	-1.3
COC(=O)Nc1sc(C(=O)N(C)C)c(C)c1C(=O)OC	4.3	7.9	i	x	-2.6	4.4	1.9	-3.7
Cc1cccc(C)c1NC(=O)CSc1nnc(CCCCCNC(=O)OC(C)(C)C)o1	1.8	-4.0	i	38.9	-15.6	-1.7	-5.9	-3.3
Cc1ccccc1-c1ccc(Nc2ccc(C(=O)N3CCOCC3)cc2)nn1	4.0	-3.5	i	-11.9	-0.3	-1.6	-1.9	x
COc1ccccc1C(O)P(=O)(OC1CCCCC1)OC1CCCCC1 (centres undefined)	0.6	-2.5	i	-1.2	x	-0.5	-10.1	-10.7
CCOc1cc([C@H]2[C@@H]3CCCC[C@]3(O)CCN2CC(=O)NCc2ccco2)ccc1O	-4.0	-4.4	i	-17.5	-16.1	3.3	5.5	-6.4
CNC(=O)c1nc(C)c(C2(C)CC(c3ccccc3)=NO2)s1 (centres undefined)	2.9	-0.1	i	-22.0	1.9	5.3	4.5	-4.1
O=C1ON=C(c2ccccc2)/C1=C/c1ccc(O)c(O)c1	-2.9	4.5	i	29.0	-19.4	50.9	15.2*	5.3	eIF4H FP inh retest=-10.8;PABP FP inh retest=50.6*
COc1ccccc1C(=O)Nc1cc2c(ccc3ccccc32)oc1=O	x	x	i	x	x	1.4	2.3	-12.3
COc1cccc(NC(=O)COc2ccc(C(=O)N3CCN(C)CC3)cc2)c1	-0.6	-3.2	i	-4.7	-20.4	-5.0	3.4	-4.3
CC(C)CCn1cnc2c1c(=O)n(C)c(=O)n2C	0.6	-0.4	i	x	1.1	-5.1	11.4	-2.0
CC(=O)N(C)c1ccc(NC(=S)Nc2ccc(C(C)C)cc2)cc1	7.9	-0.6	i	-4.3	-22.0	7.2	-1.6	1.3
CCOc1ccc(C(=O)NCc2ccco2)cc1OC	-6.6	-3.1	i	-5.5	-9.9	-7.4	-0.2	x
COc1c(OC)c(O)c2c(=O)cc(-c3c(O)cccc3O)oc2c1OC	3.1	1.9	i	x	0.5	-5.7	5.8	-8.3
CC(C)OC(=O)/C(=C/c1cccnc1)NC(=O)c1ccccc1	-2.9	-6.2	i	-11.4	x	-10.6	-20.4	-2.2
CNc1sc(C(=O)c2ccccc2F)c(N)c1-c1nc2ccccc2s1	2.9	-1.6	i	-162.0	-0.6	12.8	30.4	19.9
COC(=O)c1ccc(C(=O)N2CCCC(CNC(=O)c3ccccc3Cl)C2)cc1 (centres undefined)	1.7	3.8	i	15.7	x	-8.1	-1.0	5.8
CC(C)CCNC(=O)CN(Cc1ccccc1)C(=O)CCC(=O)Nc1nccs1	1.4	3.2	i	-10.9	-8.3	3.0	0.1	9.8
O=C(NNc1cc(C(F)(F)F)ccc1Cl)c1ccc(=O)[nH]c1	-1.4	1.2	i	-2.9	-15.6	9.4	3.4	7.5
Cc1ccc(N2C(SCC(=O)O)=NC(=Nc3cccc(C)c3)C23CCCC3)cc1	-3.4	-0.5	i	-5.8	5.7	4.2	-8.9	-13.6
CCOC(=O)Cn1cc(C#N)c2cccc(CC)c21	0.5	3.6	i	0.8	-23.4	-7.8	-6.7	-13.9
CCOc1ccc(-c2nc(CN3CCCC(C(=O)N4CCOCC4)C3)c(C)o2)cc1 (centres undefined)	-7.0	0.7	i	3.5	-5.8	1.0	1.7	0.1
CC(O)CN1C(=O)C(CC(=O)Nc2ccc(Cl)cc2)SC1=Nc1ccccc1 (centres undefined)	-4.6	-14.1	i	x	22.0	-10.7	-7.1	-10.5
O=C(Nc1ccccc1)Nc1scc2c1c(=O)oc1ccccc12	x	x	i	-18.5	x	-1.9	-1.6	-2.0
O=C(O)CSc1ccnc2cc(Cl)ccc12	0.1	4.7	i	-5.3	-10.3	-2.3	5.8	-13.1

The list goes on (6 carried over from the part before).
SMILES	MT1-MMP act inh	MT1-MMP act inh RFP	Rce1 inhib	Env fusion inh	UUG fidelity	eIF4H FP inh	PABP FP inh	CSC inhib	others
Cc1ccc(N2C(SCC(=O)O)=NC(=Nc3cccc(C)c3)C23CCCC3)cc1	-3.4	-0.5	i	-5.8	5.7	4.2	-8.9	-13.6
CCOC(=O)Cn1cc(C#N)c2cccc(CC)c21	0.5	3.6	i	0.8	-23.4	-7.8	-6.7	-13.9
CCOc1ccc(-c2nc(CN3CCCC(C(=O)N4CCOCC4)C3)c(C)o2)cc1 (centres undefined)	-7.0	0.7	i	3.5	-5.8	1.0	1.7	0.1
CC(O)CN1C(=O)C(CC(=O)Nc2ccc(Cl)cc2)SC1=Nc1ccccc1 (centres undefined)	-4.6	-14.1	i	x	22.0	-10.7	-7.1	-10.5
O=C(Nc1ccccc1)Nc1scc2c1c(=O)oc1ccccc12	x	x	i	-18.5	x	-1.9	-1.6	-2.0
O=C(O)CSc1ccnc2cc(Cl)ccc12	0.1	4.7	i	-5.3	-10.3	-2.3	5.8	-13.1
CC(C)c1ccc(S(=O)(=O)N2CCN(C(=O)CN3C(=O)NC4(CCCCC4)C3=O)CC2)cc1	0.5	-3.6	i	3.4	x	x	x	2.5
CSCCc1nc(SCC(=O)Nc2nnc(C)s2)[nH]c1C	-1.0	3.2	i	x	-15.4	-10.8	-6.8	x
N#Cc1ccsc1NC(=O)CSc1nnnn1-c1ccc(O)cc1	-12.4	0.2	x	-0.4	x	u	u	-17.4
CC1CCCN(C(=O)Cc2ccc(F)cc2)C1 (centres undefined)	2.4	7.1	i	-36.1	-12.7	-3.9	4.5	-12.1
O=C(N1CCOCC1)N1CCN(c2ccccc2F)CC1	10.5	8.2	i	-84.5	11.2	2.7	-1.5	1.5
Cc1cc(NC(=O)CCC(=O)N(CC(=O)NC2CCCC2)c2ccc(Cl)cc2)no1	-1.2	1.2	i	0.5	11.1	-2.3	2.0	2.2
Cc1ccc(C(=O)/C=C/Nc2ccc(S(=O)(=O)Nc3onc(C)c3C)cc2)cc1	-1.3	-1.1	i	6.9	x	-7.2	15.8	6.8
Cc1cc(C)c2c(Cn3ccnc3)cc(=O)oc2c1	-3.3	-2.3	i	2.3	-3.2	13.6	2.6	-8.6
CCOc1ccc(NC(=O)CCCCn2c(=O)[nH]c3ccsc3c2=O)cc1	1.1	0.6	i	10.4	-0.6	-27.1	-0.4	6.5
COc1ccc(NC(=O)NCC(C)CSc2ccc(C)cc2)c(OC)c1 (centres undefined)	-2.1	-4.4	i	-0.6	7.6	2.5	11.0	13.1
CC1CCN(C(=O)CS(=O)(=O)Cc2ccccc2)CC1	-1.1	0.6	i	-11.6	-5.8	8.8	-7.7	-14.7
C/C(N)=C(/C#N)C(=O)COC(=O)CNS(=O)(=O)c1c(F)cccc1F	1.0	3.6	i	18.4	-5.9	3.3	-3.5	1.8
Cc1ccc(S(=O)(=O)c2cc3ccc(O)cc3oc2=O)cc1C	3.9	-0.7	i	-5.6	-13.1	0.6	12.2	0.9
Cc1ccccc1-c1nnc(CN2CCC(C)CC2)o1	1.7	-2.9	i	7.2	-11.0	-3.8	4.6	-1.6
Cc1nc(-c2ccc(S(=O)(=O)N3CCN(C4c5ccccc5-c5ccccc54)CC3)s2)cs1	-1.4	-4.0	i	4.3	x	-8.0	13.9	-6.3
CC(=O)Nc1cccc(-c2csc(C(O)c3ccccc3)n2)c1 (centres undefined)	1.9	-7.4	x	6.9	-0.9	x	x	x
CCOC(=O)C1(C)CCCN(C(=O)c2ccc(C#N)cc2)C1 (centres undefined)	4.2	6.1	x	-0.4	-14.0	x	x	x
CC(CCc1ccccc1)NC(=O)CN1CCSc2ccccc21 (centres undefined)	-2.3	-0.1	i	-9.9	x	-3.7	-1.3	x
Cc1ccc2nc(-c3ccc(NC(=O)CN(C)S(=O)(=O)c4ccccc4)cc3)sc2c1	x	x	i	-227.4	x	5.8	5.2	2.8
CCOc1ccc(C(=O)N2CCN(Cc3ccccc3)CC2)cc1	-1.7	-0.4	i	x	-4.0	-2.5	4.4	12.3
O=c1cc(-c2ccc(F)cc2F)[nH]c2ccccc12	x	x	i	x	x	-5.8	-8.7	-3.8
CCOc1cc2sc(N3CCC(C(=O)NCCCN4CCCC4=O)CC3)nc2cc1Br	1.7	-7.3	i	5.3	-4.7	-3.0	4.2	-5.1
CC1(c2nnc(Cc3ccccc3)o2)CC(c2ccncc2)=NO1 (centres undefined)	4.4	3.9	i	11.1	-9.5	x	x	-14.5
O=C(NC(=S)Nc1nc2c(s1)CSc1ccccc1-2)c1ccccc1	-4.0	1.9	i	-13.0	-13.9	-5.1	0.3	-5.7
c1ccc(-c2ccc(C3=Nn4c(nnc4-c4cccs4)SC3)cc2)cc1	6.4	4.0	i	12.1	-11.6	-15.8	-2.6	6.0

(continued)
SMILES	MT1-MMP act inh	MT1-MMP act inh RFP	Rce1 inhib	Env fusion inh	UUG fidelity	eIF4H FP inh	PABP FP inh	CSC inhib	others
Cc1ccc(S(=O)(=O)NC(=O)NN2CC3CCCC3C2)cc1 (centres undefined)	1.5	-1.2	i	-16.5	-20.8	-1.8	-0.7	-23.0
CCN1CCN(c2ccc(S(=O)(=O)N3CCOCC3)cc2NC(=O)/C=C/c2cccc(OC)c2OC)CC1	-4.5	-0.2	i	-14.3	-14.3	x	x	x
O=C(CC(NC(=O)c1ccccc1Cl)c1ccccc1)NCCc1ccc(Cl)cc1 (centres undefined)	-1.1	1.1	i	x	-0.7	-8.3	1.9	-9.8
COc1ccccc1NC(=O)NS(=O)(=O)c1ccc(C)cc1	2.6	3.2	i	-40.2	-6.8	-4.8	-0.8	-4.8
COCCn1c(/C=C/c2ccccc2)nc2ccccc21	-5.3	-2.2	i	-47.3	1.2	-0.9	1.6	-5.8
O=C(NCCCNC(=O)c1ccccc1F)c1ccco1	2.1	4.9	i	-8.9	x	-14.6	-1.4	-13.0
Cc1ccc2c(c1)C(=O)N(CCCCO)C2=O	x	x	i	12.2	x	-2.7	-4.7	-14.7
Cc1oc(-c2ccccc2F)nc1CS(=O)(=O)CC(=O)NC(C)CCc1ccccc1 (centres undefined)	-2.2	-2.7	i	2.5	2.8	-13.7	-13.2	-2.4
CC1(C(=O)Nc2ccc(Cl)c(Cl)c2)CCN1Cc1cc2ccccc2o1 (centres undefined)	-0.2	3.9	x	12.0	-13.9	x	x	x
CC(C)(C)OC(=O)C[C@@H]1C/C=C\C[C@H](CC(=O)N[C@H](CO)Cc2ccccc2)C(=O)N[C@@H](Cc2ccccc2)COC1=O	11.8	-0.6	x	-15.3	-2.9	x	x	23.4
COc1ccc(-c2csc3nc(-c4cccnc4)nc(Cl)c23)cc1OC	-5.7	-14.2	i	22.2	x	1.9	-3.2	49.8
C[C@H](NC(=O)c1nc[nH]c1C(=O)N1CCN(c2ccccc2)CC1)c1ccccc1	0.2	1.0	x	7.1	-19.6	x	x	3.8

High-throughput results deposited in PubChem BioAssay by several laboratories.

The list is partial, so the mix of outcomes need not match the whole.
